VDR inh: vitamin D3 receptor (human) inhibition. P11473. VDR-SRC2-3 peptide fluorescence polarization, 2 h. Potency, µM, inactives show max response, negative = inhibition, hits mostly inhibitors. 400,000 compounds, 0.93% hits; active = well fitted inhibition curve with a large enough effect; inconclusive = small, poorly fitted or top-dose-only effect, or another doubt; inactive = no such curve, though single readings can be large or run the other way; note: series mostly up to about 120 µM
Target sequence (P11473 whole entry, looked up): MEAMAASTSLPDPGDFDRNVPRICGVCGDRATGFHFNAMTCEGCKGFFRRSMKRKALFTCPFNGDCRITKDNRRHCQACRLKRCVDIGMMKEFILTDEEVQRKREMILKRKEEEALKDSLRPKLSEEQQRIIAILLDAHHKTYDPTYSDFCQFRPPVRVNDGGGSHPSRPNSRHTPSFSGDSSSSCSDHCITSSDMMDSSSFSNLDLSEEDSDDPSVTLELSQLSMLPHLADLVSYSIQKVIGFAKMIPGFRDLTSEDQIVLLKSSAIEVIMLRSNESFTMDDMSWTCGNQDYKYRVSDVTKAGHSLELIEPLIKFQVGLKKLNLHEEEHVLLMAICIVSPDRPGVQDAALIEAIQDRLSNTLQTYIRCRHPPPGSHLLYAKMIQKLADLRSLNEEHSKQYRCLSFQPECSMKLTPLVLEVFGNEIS
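Signal is fluorescence polarization, reporting how far test compounds block the interaction of VDR with the SRC2-3 coregulator peptide after a 2 h room-temperature incubation.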
An asterisk follows results filed as active; ? = inconclusive; & = joins results of further samples. % is set by controls: 0 for no effect and ±100 for the full control effect; potency is the fitted concentration of half-maximal effect. A portion of the library; count on the stated rates, not on these rows.

SMILES	VDR inh
CC1CCCC(NC(=O)c2ccc3c(c2)OCCO3)C1C (stereo not drawn)	-8.4%
Cc1ccccc1NC(=O)c1c(C)oc2ccc(O)c(CN(C)Cc3ccccc3)c12	3.7%
COc1ccccc1NC(=O)c1cccc(S(=O)(=O)N2CCN(c3ccccc3)CC2)c1	13.2%
CCNc1nc(NCC)n2c(SCC(=O)Nc3ccc(C)c(C)c3)nnc2n1	10.4%
O=C(NCCc1ccccc1)C1CCC(Cn2c(=O)c3ccccc3n(Cc3cccc(Cl)c3)c2=O)CC1 (stereo not drawn)	-0.1%
Cc1cccc(CC2CC(=O)N(CCc3ccc4c(c3)OCO4)C2=O)c1 (stereo not drawn)	-16.8%
CCOC(=O)C1(Cc2cccc(F)c2)CCN(C(=O)C2CCOCC2)CC1	-6.1%
O=C(Cn1cc2c(n1)CCCCC2)Nc1c(F)c(F)cc(F)c1F	6.5%
O=C(c1ccccn1)N1CCN(C(=O)c2ccccn2)CC1	1.7%
COc1ccccc1CNC(=O)Cn1ccsc1=N	0.6%
Cc1nc(C(=O)Nc2cccc(Cl)c2)nn1-c1cc(OC(C)C)c(Cl)cc1Cl	-8.4%
CN(CC(=O)Nc1ccccc1Cl)C1CCS(=O)(=O)C1 (stereo not drawn)	-17.2%
CN(C)[C@@H](CO)c1nnc([C@H](CC(=O)O)NC(=O)C2CCNCC2)o1	13.0%
C=NCc1cc2c(OC[C@@H](O)CNC(C)(C)C)cccc2[nH]1	5.9%
CC1CC=CCC1(CO)CO (stereo not drawn)	1.4%
O=C(CSc1nc2nc[nH]c2c(=O)[nH]1)NC1CCCCC1	19.9%
Cc1cc(NC(=O)c2ccc(NC(=O)C(C)Oc3ccccc3)cc2)no1 (stereo not drawn)	-6.2%
Cc1cc(C)c(NC(=O)CSc2nc3ccncc3[nH]2)c(C)c1	-15.6%&12.4%
Cc1cccc(C)c1OCc1cc(C(=O)N2CCC(c3ccncc3)CC2)no1	3.8%
O=C(COC(=O)CCc1nc2ccccc2s1)Nc1ccc(Cl)cn1	8.7%
COc1ccc(OC)c(CN2CCN(C(=O)CN3C(=O)NC4(CCCC4)C3=O)CC2)c1	-12.9%
C=CCN(C(=O)c1oc2c(Cl)cc(C)cc2c1C)C1CCS(=O)(=O)C1 (stereo not drawn)	-0.1%
CN1CCN(C2CC(=O)N(CCc3ccccc3)C2=O)CC1 (stereo not drawn)	6.4%
Cc1cccc(N2C(=O)C(O)=C(C(=O)c3cccs3)C2c2ccc(Cl)cc2)n1 (stereo not drawn)	-14.7%
Cc1cc(Br)ccc1NC(=O)CN1C(=O)C2CC=CCC2C1=O (stereo not drawn)	-18.1%
CC(=O)Nc1ccc(S(=O)(=O)NNC(=O)c2ccc3c(c2)OCO3)cc1	1.3%
OCC[C@H]1C[C@H](O)[C@@H](O)[C@]2(CCCc3ccccc3O2)O1	5.9%
Nc1c(N(CCO)C(=O)COc2ccc(Cl)cc2)c(=O)[nH]c(=O)n1Cc1ccccc1	0.0%
Cc1cc(C)c2c(NC(=O)c3ccccc3Cl)c(C(=O)Nc3ccc(C)c(C)c3)sc2n1	-14.7%
CCOCCCNC(=O)c1ccc(OC)c(OC2CCN(C(C)C)CC2)c1	-15.0%
Cc1nn(Cc2ccccc2)c2c1C(c1ccccc1)C(C#N)=C(N)O2 (stereo not drawn)	-4.1%
Cc1ccc(C(=O)O)cc1NC(=S)NC(=O)C(c1ccccc1)c1ccccc1	-25.4%

Arranged by count of non-hydrogen atoms (ascending): 5 of the compounds above
SMILES	VDR inh
OCC[C@H]1C[C@H](O)[C@@H](O)[C@]2(CCCc3ccccc3O2)O1	5.9%
Cc1cc(Br)ccc1NC(=O)CN1C(=O)C2CC=CCC2C1=O (stereo not drawn)	-18.1%
CCOCCCNC(=O)c1ccc(OC)c(OC2CCN(C(C)C)CC2)c1	-15.0%
Nc1c(N(CCO)C(=O)COc2ccc(Cl)cc2)c(=O)[nH]c(=O)n1Cc1ccccc1	0.0%
Cc1cc(C)c2c(NC(=O)c3ccccc3Cl)c(C(=O)Nc3ccc(C)c(C)c3)sc2n1	-14.7%

Following part:
SMILES	VDR inh
CCOC(=O)N1CCN(C(=O)c2ccc(-n3c(=S)[nH]c4ccccc4c3=O)cc2)CC1	12.2%
Cn1cnnc1SCCn1c(N2CCCCC2)nc2c1c(=O)[nH]c(=O)n2C	-2.1%
O=C1OC[C@@H]2CCCN2C(=O)[C@@H](CC(=O)N(CCO)Cc2ccccc2)C/C=C\C[C@@H]1Cc1ccc(F)cc1	-10.9%
COC(=O)CN1C(=O)CSc2ccc(S(=O)(=O)Nc3cc(C)ccc3C)cc21	2.2%
COc1cc(-c2cc(C(=O)O)c3c(OC)c(OC)c(OC)cc3n2)ccc1O	1.4%
Cc1ccc(-c2nc3ccccn3c2NCc2ccc3c(c2)OCO3)cc1	2.7%
COC(=O)c1cccc(C23CC4(C2)[C@H](CN(Cc2ccc(C(F)(F)F)cc2)[C@@H]4c2ccccc2)C3c2ccc(Cl)nc2)c1 (stereo partly drawn)	-9.3%
Nn1c(COc2cccc(Br)c2)nnc1SCC(=O)N1CCc2ccccc2C1	-10.6%
Cc1ccc(C)c(Cn2nnc3c(=O)[nH]c(C4CCCN(C(=O)c5ccco5)C4)nc32)c1 (stereo not drawn)	-0.7%
CCN(CC(O)Cn1c2ccccc2c2ccccc21)S(=O)(=O)c1ccc(F)cc1 (stereo not drawn)	10.9%
CCn1c(SCc2ccc(Cl)cc2Cl)nc2nc3c(cc2c1=O)CCCC3	1.4%
COc1ccc(C2Nc3ccccc3-c3cc(C)nn32)cc1OC (stereo not drawn)	6.9%
O=C(O)c1cc(-c2ccccc2)nn1CC1CC(c2cccc([N+](=O)[O-])c2)=NO1 (stereo not drawn)	-26.7%
Cc1c(NC(=O)c2cc3ccccc3o2)c(=O)n(-c2ccccc2)n1C	-5.5%
O=C(CC1C(=O)NCCN1Cc1ccc(-c2ccccc2)cc1)NCC1CCOCC1 (stereo not drawn)	-11.1%
O=C(CSc1nnc(NC(=O)C2CC(=O)N(c3ccccc3)C2)s1)NCc1ccco1 (stereo not drawn)	-13.0%
CCC(C)C(NS(=O)(=O)c1ccc(C)cc1)C(=O)N1CCOCCOCCOCC1 (stereo not drawn)	11.0%
Cc1cccc(OCC(=O)Nc2ccc3c(c2)nc(CCN2CCN(C)CC2)n3C)c1	-7.6%
O=[N+]([O-])c1nn(-c2ccc(Cl)cc2)n(O)c1=NCc1ccccc1Cl	8.7%
CC1(C)C2CCC1(C)C(SC(=N)N)C2 (stereo not drawn)	-16.0%
CN1C(=O)c2ccccc2C(C(=O)O)C1c1cccc([N+](=O)[O-])c1 (stereo not drawn)	6.1%
O=C(N/N=C/C=C/c1ccc([N+](=O)[O-])cc1)C1COc2ccccc2O1 (stereo not drawn)	-1.9%
Cc1cccc(C)c1NC(=O)Cn1nnc(C(=O)Nc2ccc(F)cc2F)c1N	-3.3%
Nc1ncc(Br)cc1S(=O)(=O)NCCC(=O)NC1CCCCC1	-24.8%
CC(CCc1ccccc1)NC(=O)c1ccco1 (stereo not drawn)	0.2%
COc1ccc(Cl)cc1NC(=O)c1nc2nc(C)cc(C(F)F)n2n1	1.2%
CC1CCCCC12NC(=O)N(CC(=O)N1CCN(c3ncccn3)CC1)C2=O (stereo not drawn)	-18.9%
O=c1c(-c2ccc(O[C@@H]3O[C@H](CO)[C@@H](O)[C@H](O)[C@H]3O)cc2)coc2cc(O)cc(O)c12	1.0%
O=C1/C(=C/c2cccc(F)c2)SC(=S)N1NS(=O)(=O)c1ccccc1	?
COc1ccc(CC(=O)NNC(=O)COc2ccc(Br)cc2C)cc1OC	-4.3%
Cc1ccc(C2=CC(c3ccc(Cl)cc3)n3nc(-c4ccc(C)cc4)nc3N2)cc1 (stereo not drawn)	-3.6%
COc1cccc(Nc2sc(C(=O)c3ccc(Cl)cc3)c(N)c2C(=O)NCc2ccc(C)cc2)c1	0.4%
Cc1nc(-c2ccccc2)sc1-c1ccc(SCC(=O)NCc2ccc(F)cc2)nn1	7.8%
O=C(OCC(=O)N1CCCCCC1)c1ccc(F)cc1F	5.5%
O=C(NC(Cc1ccccc1)C(=O)O)/C(=C/c1ccco1)NC(=O)c1cccc(Br)c1 (stereo not drawn)	-6.4%
N#C/C(C(=O)NCCc1ccccc1)=C1/N=C(NC(=O)c2cccs2)c2ccccc21	-6.8%
O=C(Nc1ccc(S(=O)(=O)Nc2ncccn2)cc1)c1cccnc1	-13.7%
O=C(N/N=C/c1c(F)cccc1Cl)c1cc(C2CC2)[nH]n1	0.2%
O=C(CCNS(=O)(=O)c1cccs1)N1CCc2ccccc2C1	-2.7%
CCOC(=O)C1CCCN(C(=O)Cn2ncn3c(cc4sc(CC)cc43)c2=O)C1 (stereo not drawn)	12.8%
COC(=O)N1CCC2(CCN(Cc3ccccc3OC)CC2)CC1	2.4%
CC(C)CSc1nc(N)nc2c1ncn2C1OC(CO)C(O)C1O (stereo not drawn)	1.2%
O=c1[nH]c(=S)[nH]c2scc(-c3ccc(Br)cc3)c12	-12.8%
c1ccc(OCc2nn3c(C4CCCCC4)nnc3s2)cc1	-10.7%
CCN(CC(=O)NNC(=O)c1ccccc1)Cc1ccc(OC)c(F)c1	17.8%
COc1cccc(/C=N/NC(=O)CCCC(=O)NC2CCCCC2)c1	-14.8%
O=C(NC1CCCCC1)C1CC(=O)N(c2ccccc2)C1 (stereo not drawn)	-15.4%
O=C(O)/C=C/C(=O)NCCc1ccccc1	-8.5%
O=C(Nn1cnnc1)c1cc2c(s1)CCCC2	13.5%
COc1ccc(CC(NC(C)=O)C(=O)NC2CCN(c3nnnn3-c3ccccc3)CC2)cc1 (stereo not drawn)	-23.1%
CC(C)Cn1cc(C(=O)N2CCC(C)CC2)c2c3ccccc3n(C)c2c1=O	5.8%
O=C1OC2C[C@H]1[C@@H]1C(=O)N(Cc3ccccc3)CCC1C2I (stereo partly drawn)	6.7%
C/C(=N\N=C(N)N)c1cccc(Cl)c1	-10.9%
CCOC(=O)c1csc(NC(=O)c2ccc(N3C(=O)CCC3=O)cc2)n1	8.5%
O=C(Nc1ccc2[nH]ncc2c1)c1ccccc1Br	-1.4%
COc1ccc(NC(=O)Cn2c([N+](=O)[O-])cnc2C)cc1Cl	-2.2%

Next entries follow:
SMILES	VDR inh
COC(=O)C1=NN(C(=O)c2ccccc2)C(O)(c2ccc([N+](=O)[O-])cc2)C1 (stereo not drawn)	?
CCc1nnc(NS(=O)(=O)c2ccc(NC(=S)NC(=O)c3ccc(OC)c(OC)c3)cc2)s1	-15.1%
COc1ccc(S(=O)(=O)NC(C)C(=O)Nc2ccccc2C(F)(F)F)cc1 (stereo not drawn)	2.9%
Cn1c(=O)n(C)c2cc(NS(=O)(=O)c3ccc(Br)s3)ccc21	-6.3%
NNc1nncc2ccccc12	-6.8%&11.8%&-6.2%
COCC(=O)N(CCc1ccc(OC)cc1)Cc1nc2ccccc2c(=O)[nH]1	1.5%
O=C(N/N=C/c1ccc(N2CCOCC2)cc1)c1ccc(O)cc1	-15.1%
COc1cccc(C(=O)OCC(=O)c2ccc(Br)s2)c1	4.1%
CN(C)S(=O)(=O)c1ccc(C(=O)NCC(=O)N/N=C/c2ccco2)cc1	7.7%
COc1ccccc1-n1cc(-c2ccccc2)[nH]c1=S	4.5%
Cc1cc(C(=O)Nc2ccc(N3CCCC3)c(Cl)c2)ccc1[N+](=O)[O-]	-3.8%
Cc1nc(NC(=O)COC(=O)C2CC3CCCC(C2)C3=O)c(Cl)cc1Cl (stereo not drawn)	-8.2%
CCOC(=O)CC(=O)CSc1nc(-c2ccccc2)cc(-c2ccc(Cl)cc2)c1C#N	4.1%
O=c1c(OC2OC(CO)C(O)C(O)C2O)c(-c2ccc(O)c(O)c2)oc2cc(O)cc(O)c12 (stereo not drawn)	8.5%
CC[C@@H](C)[C@H](N)C(=O)NC[C@H]1O[C@@H](n2cnc3c(N)ncnc32)[C@H](O)[C@@H]1O	-14.0%
CC(C)(C)c1ccc(NC(=O)C2CCCN(c3cnccn3)C2)cc1 (stereo not drawn)	-12.0%&10.3%
CCN(CC)c1ccc(/C=N/NS(=O)(=O)c2ccc(CNC(C)=O)cc2)cc1	-11.7%
O=C(CSc1nnnn1-c1ccccc1)Nc1ccc(N2CCOCC2)c(Cl)c1	14.1%
CCOc1ccc(C(=O)CCCC(=O)c2ccc(OCC)cc2)cc1	-12.3%
CN(CC1CCCN(CCc2ccc(F)cc2)C1)C(=O)CCC(N)=O (stereo not drawn)	-20.6%
O=C(Nc1ccc(Cl)c(Cl)c1)Nc1nnc(-c2ccncc2)s1	-8.4%
O=C(NCc1cccnc1)c1ccc2c(c1)C(=O)N(Cc1ccccc1)C2=O	-5.3%
COc1ccccc1N1CCN(S(=O)(=O)c2c[nH]c(=O)[nH]c2=O)CC1	3.0%
CC(C)CNC(=O)NC1(C(F)(F)F)Oc2ccccc2O1	-13.0%
CC1CN(c2ncnc3c2oc2ccccc23)CC(C)O1 (stereo not drawn)	11.2%
CC(C)CCOc1ccc(Cn2c(=O)sc3ccccc32)cc1	4.4%
CCOC(=O)c1cnc2c(cnn2C)c1NCCCN(C)C	11.2%
O=C1CC(C(=O)N2CCCc3ccccc32)CN1c1ccc(Cl)cc1 (stereo not drawn)	-13.3%
CC(C)(C)c1cc(OC(=O)c2ccccc2F)ccc1O	11.7%
COc1ccc(N(CC(=O)Nc2c(C)n(C)n(-c3ccccc3)c2=O)S(=O)(=O)c2ccc(F)cc2)cc1	-11.0%
CC(C)(C)NC(=O)CCN(/N=C/c1ccccc1)C1=NS(=O)(=O)c2ccccc21	10.9%

Screening data deposited in PubChem by National Center for Advancing Translational Sciences (NCATS).
